# Source: PubChem BioAssay (ICCB-Longwood Screening Facility, Harvard Medical School)
# MgrA DNA FP – modulators of Staphylococcus aureus MgrA DNA binding | 84,000 compounds, 0.13% hits | inhibition, %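 (about 10 µg/mL by stock and volumes)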 | fluorescence polarization | AID 602314;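 active means above 50% in either of two replicates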;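 further: 0% = protein plus DNA without compound and 100% = DNA alone without protein; higher means less MgrA bound to DNA so lower polarization; one replicate is shown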
# S aureus helic – S. aureus DNA helicase inhibition. purified S. aureus helicase, fluorescence unwinding assay; about half of the hits fall short of the stated cut. inhibition, %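 (tested at about 80 µM)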. 120,000 compounds, 0.05% hits;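 active means both duplicates at 50% or more, or one of them with a favoured structure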;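 further: 0% = mean of negative control wells and 100% = mean of positive control wells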
# The depositor's hits bear a star; x = no result given; & = joins results of further samples. Only part of the results is shown. The share of hits here may be higher or lower than overall.
# Start of the listing, in advance, 7 compounds:
SMILES,MgrA DNA FP,S aureus helic
O=C1NN=CC1CCCNC(=S)Nc1cccc(C(F)(F)F)c1 (stereo unspecified),-0.4,x
O=C1C=CC(=O)N1c1cc(C(F)(F)F)ccc1Cl,3.1,-12
CC(=O)Nc1cccc(C(=O)N(C)CCOc2ccccc2)c1,x,32
CCOc1ccc(C(=O)OCC(=O)Nc2ccc(S(N)(=O)=O)cc2)cc1,x,0
Cc1cc(Nc2cccc(Cl)c2)nc2ccc(NC(=O)c3ccccn3)cc12,-1.5,-1
C=CCN(CC=C)Cn1c(=S)oc2ccc(S(=O)(=O)Nc3ccc(OC)cc3)cc21,x,27
CC(=O)NC1C(OCc2ccccc2)OC(CO)C(O)C1OC(C)=O (stereo unspecified),x,8

# The listing (from the top)
SMILES,MgrA DNA FP,S aureus helic
O=C1NN=CC1CCCNC(=S)Nc1cccc(C(F)(F)F)c1 (stereo unspecified),-0.4,x
O=C1C=CC(=O)N1c1cc(C(F)(F)F)ccc1Cl,3.1,-12
CC(=O)Nc1cccc(C(=O)N(C)CCOc2ccccc2)c1,x,32
CCOc1ccc(C(=O)OCC(=O)Nc2ccc(S(N)(=O)=O)cc2)cc1,x,0
Cc1cc(Nc2cccc(Cl)c2)nc2ccc(NC(=O)c3ccccn3)cc12,-1.5,-1
C=CCN(CC=C)Cn1c(=S)oc2ccc(S(=O)(=O)Nc3ccc(OC)cc3)cc21,x,27
CC(=O)NC1C(OCc2ccccc2)OC(CO)C(O)C1OC(C)=O (stereo unspecified),x,8
CC(C)Nc1c(-c2ccccc2)nc2ccccn12,3.8,10
Cc1ccc(CNC2=NCCC2)n1C,x,-12
CCN1CCN(C(=O)C(C)Nc2cc(Cl)c(OC)cc2OC)CC1 (stereo unspecified),x,5
O=C(CCCc1ccccc1)Nc1nnc(C(F)(F)F)s1,-0.3,9
CC(C)Sc1n[nH]c(=O)n1-c1ccc2c(c1)OCCO2,x,-22
CCOC(=O)c1cc(-c2ccc(S(=O)(=O)N3CCCc4ccccc43)s2)on1,x,-1
CC1CCC(NC(=O)CN2CCC(n3nnc4ccccc43)CC2)CC1 (stereo unspecified),-2.5,5
O=S(=O)(NCCN1CCCC1)c1ccc(C(F)(F)F)cc1,1.2,x
O=C(Nc1ccccc1)C1CC(=O)n2ncnc2N1 (stereo unspecified),-2.2,13
COc1ccc(CN2C(=O)CCC2(C)C(=O)NCCC(C)C)cc1 (stereo unspecified),x,-26
COc1ccc(C=C2C(=O)NC(=S)NC2=O)cc1OCc1ccc(Cl)cc1Cl,22,x
O=C(/C=C/c1ccccc1)OCc1cnc(Cl)s1,2.5,x
CCc1cc2c(=O)c(-c3ccn(C(C)=O)n3)coc2cc1OC(C)=O,1.2,9
COc1ccccc1CNC(=O)c1cn(C)c(=O)c2cc(OC)c(OC)cc12,x,33
CN1CCN(C(=O)/C(C#N)=c2\s/c(=C\c3ccc4c(c3)OCO4)c(=O)n2Cc2ccco2)CC1,x,19
O=C1CC(c2ccsc2)Sc2ccccc2N1 (stereo unspecified),0.6,x
O=C(O)c1cccc(NC(=O)C2CCCCC2C(=O)O)c1 (stereo unspecified),2.0,1
O=C(CCc1ccc(O)cc1)N/N=C/c1ccc(Cl)c(Cl)c1,-0.1,x

# Going on with the list.
SMILES,MgrA DNA FP,S aureus helic
CC(=O)Nc1ccc(N=NN2CCCCC2)cc1,-5.2,1
COc1cc(CN2CCN(C(=O)c3ccccc3F)CC2)cc(OC)c1OC,x,24
N/C(Cn1ccc(C(F)(F)F)n1)=N\OC(=O)Nc1ccc(Cl)cc1,x,-7
O=C(CN1CCC(n2nnc3cc(C(F)(F)F)ccc32)CC1)Nc1ccc(N2CCCC2)cc1,-0.3,22
CN(C(=O)COC(=O)c1cc(=O)[nH]c2ccccc12)c1c(N)n(Cc2ccccc2)c(=O)[nH]c1=O,x,-6
COc1ccc(C(C(O)C(=O)c2c[nH]c3ccccc23)N2CCN(c3ccccc3)CC2)cc1 (stereo unspecified),x,-7
CC1CCC(C(C)C)C(OC(=O)Cn2nnc(-c3ccccc3)n2)C1 (stereo unspecified),x,13
O=C(NCCCO)NC1CCCCC1,-0.2,4
O=C(COc1ccccc1)Nc1ccc(-c2nc3ncccc3o2)cc1,x,6
COC(=O)c1sc(Sc2cccs2)c2c1CC(C)(C)CC2=O,x,-3
CCc1ccc(S(=O)(=O)NCC(O)COc2ccc(OC)cc2)cc1 (stereo unspecified),-3.5,x
CCN(CC)S(=O)(=O)c1cc(C(=O)N(C)c2ccccc2)ccc1Cl,-1.1,33
N#CCC(=O)NCc1ccc(F)cc1F,-2.4,x
CCC(C)Cn1c(C(C)O)nc2ccccc21 (stereo unspecified),x,-8
Cc1cc(-c2ccc(C)c(S(=O)(=O)NCCN3CCN(c4cc(Cl)ccc4C)CC3)c2)on1,x,8
O=c1ccc(C(F)(F)F)cn1CN1CCN(S(=O)(=O)c2ccc3c(c2)CCCC3)CC1,x,-8
NC(=O)C1CCN(CC(O)CSc2ccc(F)cc2)CC1 (stereo unspecified),-0.3,x
CCOC(=O)C1=C(C)N=c2s/c(=C\c3ccc(OC)c(O)c3)c(=O)n2C1c1ccc(OC)c(OC)c1 (stereo unspecified),2.4,x
CN1Cc2c(N)cccc2C(c2ccccc2)C1 (stereo unspecified),3.5&2.2,x
O=C(Nc1nccs1)c1ccc(S(=O)(=O)N2CCCc3ccccc32)cc1,x,-6
O=C(O)CC(CC(=O)Oc1ccc(F)cc1)c1ccc(Cl)cc1Cl (stereo unspecified),-0.7,x
CCN(CC)C1=CC(=O)OC12CCCCC2,4.7,1
CSc1ccc(C(=O)NC(=O)NCc2cccc(Cl)c2)s1,-2.1,x
COc1cc(OC)cc(C(=O)Nc2cc(NC(=O)c3ccco3)ccc2OC)c1,0.1,1
CC(=O)NCc1ccc(-c2csc(NC(=O)c3cnn(-c4ccccc4)n3)n2)cc1,x,-19

# Going on with the list:
SMILES,MgrA DNA FP,S aureus helic
COC(=O)c1cc(-c2ccccc2)n[nH]1,-2.8,-4
CCOc1ccccc1C1C(C#N)=C(SCC(=O)OCc2ccccc2)NC(=O)C1C#N (stereo unspecified),-0.6,x
COC(=O)CC1C(=O)NCCN1C(=O)CSc1nc2ccccc2s1 (stereo unspecified),x,-9
CCOc1ccc(CNC(=O)c2cc3cc4ccc(OC)cc4nc3o2)cc1,x,9
CN(C)C(=O)C12CCC(C)(C(=O)C1)C2(C)C (stereo unspecified),x,-11
S=c1nc(N=Cc2ccco2)cc(/N=C/c2ccco2)[nH]1,22,11
CSc1ncc(C(=O)N2CCN(c3ncccn3)CC2)n1-c1ccccc1,x,14
Cc1c(C(=O)O)sc2ncn(Cc3ccccc3F)c(=O)c12,-10,11
N#Cc1ccc(C(=O)OCC(=O)Nc2ccc(N3CCCCC3)cc2)cc1,x,15
Cc1ccc(C)c(NC(=O)c2cccs2)c1,0.1,-7
Cc1nc2c(c(C)nn2-c2ccccc2)c(C)c1CCC(=O)N1CCCC1,x,-15
C=CCn1c(SCc2nc3ccccc3c(=O)[nH]2)nnc1-c1cccc(OC)c1,-4.8,-4
CCOC(=O)c1c(CS(=O)(=O)c2cccc(C(F)(F)F)c2)oc2c(F)c(F)c(F)c(F)c12,x,25
COC(=O)CSC1=C(C#N)C(c2ccccc2Cl)C(C#N)C(=O)N1 (stereo unspecified),x,-16
COC(=O)c1ccc(CSc2nnc(-c3ccc(OC)cc3)o2)cc1,0.8,1
CCC(=O)Nc1ccc(-c2nc3c(C)cccc3c(=O)o2)cc1,0.1,18
Cc1cc(C)n(-c2n[nH]c(=O)c3ccccc23)n1,x,7
COC(=O)CNC(c1ccccc1)c1cc(Br)ccc1NC(C)=O (stereo unspecified),x,-15
CCN1C(=O)C(O)(CC(=O)C(C)(C)C)c2cc(Br)ccc21 (stereo unspecified),3.5,-15
CCN1C(=O)C2CSCN2C1=O (stereo unspecified),x,-15
Clc1ccc(CCNc2ncnc3[nH]ncc23)cc1,x,8
CC(Oc1cccc2c1OC(C)(C)C2)C(=O)N1CCc2ccccc21 (stereo unspecified),x,-1
NC(=O)Cn1c(CSc2nnnn2C2CCCC2)nc2ccccc2c1=O,x,3
CCN(CC)S(=O)(=O)c1ccc(N2CCN(c3ccc(C(F)(F)F)cn3)CC2)nc1,x,-3
O=C(c1nn2c(C(F)(F)F)c3c(nc2c1Cl)-c1ccccc1CC3)N1CCOCC1,0.2,x

# (further entries)
SMILES,MgrA DNA FP,S aureus helic
CCCc1cc(=O)[nH]c(SCC(=O)c2cc(C)n(-c3ccc4c(c3)OCO4)c2C)n1,x,-13
O=C1CN(S(=O)(=O)CCOc2ccccc2)CC(=O)N1CCc1ccccc1,x,-4
C#CC(C)(C)N1CN=C(SC)NC1,1.7,x
COc1cc2c(cc1OC)C(c1ccccc1F)OC(=O)C2 (stereo unspecified),-2.2,11
O/N=C/c1ccnc(SCc2ccc(Cl)cc2)n1,0.6,x
C=CCNC(=O)C1CC(=O)N(c2ccc(OCC(=O)Nc3ccc(F)cc3)cc2)C1 (stereo unspecified),3.7,18
COC(=O)c1cc(C(=O)OC)cc(-n2c(C)ccc2C)c1,x,12
O=C(Cc1cccc2ccccc12)NCc1ccc(F)cc1,-1.4,4
COc1ccc(S(=O)(=O)Nc2ccc(F)cc2C)cc1OC,1.4,-8
Cc1nc2ccccc2nc1C(=O)NCCCN1CCN(c2ccccc2)CC1,x,16
CN(C)c1ccc(C(=O)OCC(=O)c2cccc(Cl)c2)cc1,-0.6,1
N#CC1=C(N)OC(C2CC2)=C(C#N)C1c1cccs1 (stereo unspecified),4.7,x
CC(=C(C#N)C#N)c1ccccc1,1.0,-16
O=c1[nH]c(CN2CCOCC2)nc2sc3c(c12)CCCC3,x,2
C[N+](C)(C)CC(O)COc1ccccc1 (stereo unspecified),2.1,-1
O=C(O)CCCC(=O)N1CCN(c2ccccn2)CC1,-0.2,x
COC(=O)c1cc(CSc2nc3ccccc3c(=O)n2C)oc1C,x,2
CN1/C(=C\C(=O)Nc2cccnc2)c2ccccc2CC1(C)C,-1.5,5
CCOC(=O)c1noc(C)c1-c1csc(Nc2cc(C(F)(F)F)cc(C(F)(F)F)c2)n1,x,13
CCN(C(=O)NCc1noc2ccccc12)c1ccccc1,x,-14
Cc1nc2ccc3c(c2s1)CCCC3,-2.3,3
O=C1/C(=N\O)CC(OC(=O)c2ccccc2)C/C1=N/O (stereo unspecified),3.4,6
CC(C)(C)c1nnc(/N=C/NO)s1,-1.1,x
O=c1[nH]c2cc(S(=O)(=O)CCO)ccc2o1,x,2
CCOC(=O)CSc1nnc(CNC(=O)c2cccs2)n1-c1ccccc1,1.8,16

# Going on with the list:
SMILES,MgrA DNA FP,S aureus helic
CCOC(=O)c1cnc(N2CCCCC2)[nH]c1=O,-2.6,-6
O=C(Nc1nccs1)C1CC2CCC1C2 (stereo unspecified),2.5,9
CCOC(=O)NC(=S)Nc1ccc(F)cc1,4.3,x
CCN1C(=O)NC(c2cc(Br)c(O)c(OC)c2)C(C(=O)OCCOC)=C1C (stereo unspecified),0.6,x
Cc1cc(Oc2nc3cc(Cl)ccc3s2)c2cc(Cl)ccc2n1,5.1,x
N#Cc1cccc(NC(=O)CSc2ccccc2)c1,1.4,6
Cc1cc(N)c(N)cc1C,x,-15
CCOC(=O)/C(C#N)=C1\CCc2ccccc21,2.9,x
CCOC(=O)c1c(C)n(OC)c2ccc3nonc3c12,-1.8,x
CC12CCC(c3nnc(SCC(=O)Nc4cccc(C(F)(F)F)c4)nc31)C2(C)C (stereo unspecified),2.4,8
CN1/C(=C\C(=O)COC(=O)CCN2C(=O)C3CC=CCC3C2=O)C(C)(C)c2ccccc21 (stereo unspecified),x,7
COCCOc1ccc(C(F)(F)F)cc1NCC(=O)Nc1cccnc1Cl,x,15
CCOc1ccccc1N=C1SC(CC(=O)Nc2ccccc2)C(=O)N1Cc1ccco1 (stereo unspecified),x,-20
N/C(=N\O)c1ccc(Oc2ccc(C(F)(F)F)cn2)cc1,-4.1,x
Cc1ccc2c(COC(=O)c3ccc(-n4cnnn4)cc3)cc(=O)oc2c1,x,-1
CCOc1ncccc1C(=O)NC(C)CCc1ccccc1 (stereo unspecified),x,5
COc1ccc(-n2nc3cc(C)c(NC(=O)c4ccc5c(c4)OCO5)cc3n2)cc1,-2.0,10
CC(=O)NC1C(=O)NC(=S)N(c2ccccc2)C1=O (stereo unspecified),-6.7,14
COc1ccccc1/C=C/C(=O)Nc1ccccc1C(=O)NCc1ccco1,x,-15
CC(=O)Nc1ccc(NC(C)=O)c(C(F)(F)F)c1,1.0,0
CC1=NOC(=O)C1C(c1cccc(Br)c1)c1c(C)[nH]n(-c2ccccc2)c1=O (stereo unspecified),x,16
CN1CCN(C(=S)SCC(=O)Nc2nc(=O)c3ccccc3s2)CC1,1.0,9
Cc1cc(-c2onc(C)c2C(N)=O)no1,2.1,x
Cc1nc2c(-c3ccccc3)c(C)nn2c(C)c1CCC(=O)NCCN1CCCC1,x,19
O=C1NC(=O)/C(=C/c2ccc(OC(=O)c3ccc(Cl)cc3)cc2)N1,-4.2,x

# Given field by field: entries from further up
> CCOc1ncccc1C(=O)NC(C)CCc1ccccc1 (stereo unspecified)
  MgrA DNA FP: x; S aureus helic: 5

> O=C(Nc1nccs1)C1CC2CCC1C2 (stereo unspecified)
  MgrA DNA FP: 2.5; S aureus helic: 9

# Further records.
SMILES,MgrA DNA FP,S aureus helic
Cc1ccc(CN(C)S(=O)(=O)c2ccc(C(=O)NCC(F)(F)F)cc2)o1,x,9
COc1ccc(NC(=O)c2ccc(C)o2)cc1Cl,2.2,24
CN(C)CCCNc1nnc(Cc2ccccc2)c2ccccc12,-1.4,x
CS/C(=C\C(=O)c1cccs1)NCc1ccco1,-0.3,x
CCOC(=O)c1c(NC(=O)c2ccc(Cl)c([N+](=O)[O-])c2)sc(C(=O)Nc2ccc(OC)cc2)c1C,2.6,x
Nc1nc(SCC(=O)Nc2ccc3c(c2)OCO3)n[nH]1,x,2
CSC1=NN(C)c2cnn(C)c(=O)c2S1,3.7,x
CCCC(=O)CC(c1ccccc1)C1C(=O)c2ccccc2C1=O (stereo unspecified),4.8,5
